# Assay outcomes: PubChem, several laboratories
# A1 inh = inhibitors of the anti-apoptotic protein A1, read as caspase activation; MEF A1-2A-BIM cells, Caspase-Glo 3/7 luminescence, 3 h; percent of clofoctol response, vehicle zero; 330,000 compounds, 0.066% hits; caspase activation, % (no concentration beside the values);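 active = over half of replicate activation scores above 10%, or exactly half above 10 with the replicate mean above 10; inconclusive = replicate mean below 10 yet half the replicates above 10; inactive = over half of replicates below 10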;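 note: wells of about 30 µL received 50 nL stock; many hits fall short of the cut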
# Ecoli growth = inhibitors of Escherichia coli growth; OD600, 23 h; stronger effect = lower value; OD600 absorbance (test concentration not listed); 330,000 compounds, 0.21% hits; AID 1053175;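 active = OD600 absorbance below the run mean of sample wells minus 3.6 SD, in any replicate, cut at about 0.56 in these data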;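 note: stock transfer was 300 nL into about 60 µL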
# T cruzi repl = T. cruzi replication inhibition; 300,000 compounds, 1.4% hits; T. cruzi beta-gal in NIH3T3, luminescence, 90 h; inhibition, % (no concentration beside the values);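 active = mean inhibition across valid replicates above about 55%, limit read from the data; inconclusive = mean below that limit but half or more replicates reach it; inactive = mean below it, under half of replicates reach it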;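 note: signal also drops with host cell toxicity which is not excluded here; 0% = plate median of DMSO wells and 100% = zero luminescence signal; higher percent means less beta-gal luminescence so fewer parasites; stock transfer was 50 nL into about 50 µL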
# Ecoli rRNA inh = selective bacterial rRNA inhibition in E. coli; E. coli WT GFP vs humanized-ribosome RFP mutants, fluorescence, 24 h; stronger effect = lower value; DMSO median 0, no signal -100; GFP signal change (wild-type ribosome), % (concentration not given with the values); 350,000 compounds, 1.6% hits; AID 720706;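 active = significant combined selectivity score with lowered wild-type GFP, culture density cut under 30%, mutant RFP and density less affected; inactive = any of these conditions unmet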; note: one replicate is shown; some compounds called inactive have numbers as strong as hits
# FGF22 binding = FGF22 (human) thermal shift binding; Q9HCT0; recombinant FGF22 thermal shift, SYPRO orange fluorescence; percent of sucrose octasulfate shift, DMSO zero; calls only at 9.99 µM; 340,000 compounds, 1.5% hits;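 active = melting point raised past a set limit in the mean and every replicate; inconclusive = no clear call; three in four hits are not shown here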
# Target sequence (Q9HCT0 whole entry, looked up): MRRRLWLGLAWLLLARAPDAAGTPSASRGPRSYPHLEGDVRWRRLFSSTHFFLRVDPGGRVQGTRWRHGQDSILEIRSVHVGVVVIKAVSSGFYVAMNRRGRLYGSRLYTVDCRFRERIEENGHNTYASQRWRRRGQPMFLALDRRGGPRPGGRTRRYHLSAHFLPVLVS
# UCH37 inh = blocks the human deubiquitinase UCH37 | Q9Y5K5 | purified proteasome/UCH37, Ub-AMC cleavage fluorescence | inhibition, % (concentration not given with the values) | 330,000 compounds, 0.33% hits | AID 588478;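 active = mean of two replicates above 20%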;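 note: 0% = compound-free wells with enzyme and 100% = wells lacking proteasome; stock transfer was 100 nL into about 20 µL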
# Target sequence (Q9Y5K5 whole entry, looked up): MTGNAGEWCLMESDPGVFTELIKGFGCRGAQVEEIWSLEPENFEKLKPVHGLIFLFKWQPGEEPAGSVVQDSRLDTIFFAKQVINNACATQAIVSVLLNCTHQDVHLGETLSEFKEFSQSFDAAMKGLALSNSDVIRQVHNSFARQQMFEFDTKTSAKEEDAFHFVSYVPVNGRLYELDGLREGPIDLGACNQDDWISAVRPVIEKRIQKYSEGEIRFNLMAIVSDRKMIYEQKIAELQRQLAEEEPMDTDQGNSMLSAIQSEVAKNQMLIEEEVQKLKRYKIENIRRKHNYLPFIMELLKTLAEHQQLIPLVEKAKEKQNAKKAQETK
#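 Assay system: Proteasome-bound UCH37. Buffer or medium: pH 7.4 Tris-HCl (50 mM) with ovalbumin, ATP-MgCl2, DTT. Incubation: 30 min preincubation with enzyme, 25 min cleavage at room temperature. Measured by: fluorescence, ex 355 nm, em 460 nm. Read-out basis: percent inhibition. Control set: wells without proteasome as full block, compound-free enzyme plus substrate as uninhibited.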
# AF4-AF9 inh = inhibitors of human MLL-AF4/AF9 interaction; AlphaScreen, biotin-AF4 peptide binding to FLAG-AF9; P42568; 350,000 compounds, 0.47% hits; inhibition, % at 10 µM;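 active = every replicate reaching a set inhibition limit, whatever the replicate mean, cut at about 25% in these data; inconclusive = mean inhibition reaches that limit but some replicates miss it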;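 note: 0% = plate neutral control median and 100% = total signal loss; the record names both 10 and 1 µM as test concentration; the first replicate is given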
# Target sequence (P42568 whole entry, looked up): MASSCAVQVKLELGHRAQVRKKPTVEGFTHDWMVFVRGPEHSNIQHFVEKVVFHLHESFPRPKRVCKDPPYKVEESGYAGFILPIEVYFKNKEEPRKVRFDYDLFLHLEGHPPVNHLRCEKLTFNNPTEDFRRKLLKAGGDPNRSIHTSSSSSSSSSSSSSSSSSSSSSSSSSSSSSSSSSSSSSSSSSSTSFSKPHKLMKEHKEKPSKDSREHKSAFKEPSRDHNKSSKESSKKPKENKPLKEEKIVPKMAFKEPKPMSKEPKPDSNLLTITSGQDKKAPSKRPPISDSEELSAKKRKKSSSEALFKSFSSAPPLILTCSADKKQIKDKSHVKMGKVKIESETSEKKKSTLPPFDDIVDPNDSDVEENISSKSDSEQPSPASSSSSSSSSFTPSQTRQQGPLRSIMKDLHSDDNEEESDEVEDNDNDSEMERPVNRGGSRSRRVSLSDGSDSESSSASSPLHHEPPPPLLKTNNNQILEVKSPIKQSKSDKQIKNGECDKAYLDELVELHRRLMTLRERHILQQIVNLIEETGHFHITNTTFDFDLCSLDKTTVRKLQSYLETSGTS
# Beta apoptosis = beta cell apoptosis inhibition | INS-1E cytokine-induced death, ATP luminescence, 48 h; percent of positive-control rescue, neutral wells zero | protection from apoptosis, % (test concentration not listed) | 300,000 compounds, 0.8% hits | AID 435005;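 active = all replicates at 75% or more, or half of them and the mean; inconclusive = half reach 75% but not the mean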;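 note: 0% = cytokine-treated negative control wells and 100% = positive control rescue; higher means more ATP so stronger rescue from cytokine killing; wells of about 40 µL received 100 nL stock; the first replicate is given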
# Ecoli rRNA inh OD600 = second read-out of Ecoli rRNA inh, no call of its own (marks repeat the call); OD600 change, %; measured here: OD600 growth;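 optical density of the mix in the first replicate; 0 = DMSO median and -100 = no signal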
# Ecoli rRNA inh RFP = second read-out of Ecoli rRNA inh, no call of its own (marks repeat the call); RFP signal change, %; measured here: RFP humanized mutant strains;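 first replicate; 0 = DMSO median and -100 = no signal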
# Starred values were filed as active, the others as inactive; i = inactive; u = inconclusive; x = not tested or not shown; & = joins results of further samples.
nr	SMILES	Ecoli growth	FGF22 binding	Ecoli rRNA inh	Ecoli rRNA inh OD600	Ecoli rRNA inh RFP	Beta apoptosis	A1 inh	AF4-AF9 inh	T cruzi repl	UCH37 inh
1	COc1ccc(OCCN2CCN(C(=O)c3ccc(OC(F)F)c(OC)c3)CC2)cc1	0.73	i	-1	2	0.3	-7	1.7	2.0	4	3.0
2	Cn1cccc1/C=C1\SC(=O)N(c2ccccc2)C1=O	x	x	x	x	x	4	-4.1	x	-20	0.6
3	Cc1nnc(NC(=O)c2cccc(S(=O)(=O)N3CCOCC3)c2)s1	0.77	x	x	x	x	-2	-0.6	x	2	12
4	CC1OC(c2ccccc2)OC2COC(c3ccccc3)OC12 (centres undefined)	0.72	i	x	x	x	x	x	-1.0	x	3.0
5	CN(Cc1ccccc1)C(=O)Cn1c(=O)c2cccn2c2cccnc21	0.74	i	4	-2	-0.8	-5	0.1	4.6	13	-5.0
6	COc1ccc(NC(=S)NN2CCN(C)CC2)cc1OC	0.61	i	-3	15	0.0	1	0.6	1.5	-1	2.5
7	COc1cc(NC(=O)Cn2nnc(-c3ccncc3)n2)cc(OC)c1	0.69	i	-21	-22	2.9	x	0.4	-66	33	-0.4
8	CC(=S)/C=C1\Sc2ccccc2N1C	0.67	i	21	4	34	13	-1.1	13	69*	5.4

# Following part:
nr	SMILES	Ecoli growth	FGF22 binding	Ecoli rRNA inh	Ecoli rRNA inh OD600	Ecoli rRNA inh RFP	Beta apoptosis	A1 inh	AF4-AF9 inh	T cruzi repl	UCH37 inh
9	COc1ccc(C(CNc2ncnc3sc(C)c(C)c23)N(C)C)cc1 (centres undefined)	0.65	i	6	6	0.1	3	0.1	5.1	54	5.3
10	N#CC1=C(SCc2ccccc2)NC(=O)CC1c1cccc(O)c1 (centres undefined)	0.68	x	x	x	x	2	0.5	x	23	-1.0
11	O=C(O)c1ccc(N2C(=O)C3C4c5ccccc5C(Br)(c5ccccc54)C3C2=O)cc1 (centres undefined)	0.72	i	-36*	-17*	-8.5*	-11	1.4	0.3	-10	7.4
12	Cc1nn(-c2ccccc2)c2c1C(c1ccncc1)C(C#N)=C(N)O2 (centres undefined)	0.77	x	x	x	x	-2	1.3	x	-19	2.1
13	CC(C)(C)c1ccc(OCC(=O)NCC(c2cccs2)N2CCOCC2)cc1 (centres undefined)	0.64	x	2	6	-3.8	5	-0.6	-7.6	4	1.5
14	CN(C)S(=O)(=O)c1ccc(N2CCCC2)c(C(=O)NCC2CCCO2)c1 (centres undefined)	0.69	i	0	-1	-1.3	-1	-0.4	-5.6	-3	0.3
15	NS(=O)(=O)c1cc(C(=O)Nc2ccc3c(c2)CCC3)ccc1Cl	0.65	i	-15	-5	5.9	0	-1.8	3.1	2	1.1
16	O=Cc1cn[nH]c1-c1ccccc1	0.59	i	24	19	1.6	1	0.3	-1.0	-9	-0.4

# Going on with the list.
nr	SMILES	Ecoli growth	FGF22 binding	Ecoli rRNA inh	Ecoli rRNA inh OD600	Ecoli rRNA inh RFP	Beta apoptosis	A1 inh	AF4-AF9 inh	T cruzi repl	UCH37 inh
17	O=C(N/N=C/c1ccccc1O)c1cccc2ccccc12	x	i	-35*	-24*	-6.8*	x	0.3	3.4	11	x
18	CCOC(=O)c1c(O)c2c([nH]c1=O)CCCC2	0.7	x	x	x	x	-12	0.2	-1.8	-10	0.8
19	O=C(CN1CCSC1=O)Nc1ccc(N2CCOCC2)cc1	0.68	i	1	-1	-3.1	x	x	0.0	x	0.6
20	COc1cc(C(=O)O)ccc1OCc1c(C)noc1C	0.71	x	x	x	x	2	-0.1	x	-19	1.7
21	COc1ccc(NC(=S)NCc2ccc(F)cc2)cc1	0.64	i	-32	-46	15	-1	-0.3	1.2	4	5.5
22	CC12CCC(=O)N1C(C(=O)N1CCN(c3ccccc3)CC1)CS2 (centres undefined)	0.65	i	0	4	1.7	-2	-0.3	4.3	-11	5.2
23	Cc1ccc(-n2c(SCC(=O)Nc3nccs3)nc3c(c2=O)SCC3)cc1	0.74	x	x	x	x	0	-0.7	x	-15	0.6
24	CCNC(=O)c1c(NC(=O)c2cc(-c3cc(C)ccc3O)n[nH]2)sc2c1CCCC2	0.68	x	x	x	x	44	-0.1	x	46	-97

# (continued)
nr	SMILES	Ecoli growth	FGF22 binding	Ecoli rRNA inh	Ecoli rRNA inh OD600	Ecoli rRNA inh RFP	Beta apoptosis	A1 inh	AF4-AF9 inh	T cruzi repl	UCH37 inh
25	Cc1cccnc1NC(=O)C1CCC1	0.67	x	x	x	x	2	-0.5	x	-7	0.2
26	Cc1ccc(C(C)NC(=O)COC(=O)C2=COCCO2)cc1C (centres undefined)	0.71	i	4	8	1.0	-3	0.2	-0.2	x	3.1
27	CSc1ncc(C(=O)Nc2cccnc2)c(C(F)(F)F)n1	0.68	i	-3	4	1.0	0	0.1	-26	-8	-3.5
28	Cc1cc(SCC(=O)N/N=C/c2ccc(C(=O)O)cc2)nc2ccccc12	x	i	-8	-11	2.2	0	u	0.4	-6	x
29	CCC/C=C(\CCC)C(NS(=O)(=O)c1cccc2cccnc12)c1ccc(C(=O)OC)cc1 (centres undefined)	x	i	0	2	3.1	15	0.4	-12	24	1.8
30	C=CCOc1c(CNc2ccc(C(=O)O)cc2)cccc1OC	0.67	i	x	x	x	2	-1.1	4.2	-31	-1.4
31	CCc1ccc(N(C(=O)c2csnn2)C(C(=O)NC(C)(C)C)c2ccccn2)cc1 (centres undefined)	0.68	i	13	19	15	-4	0.6	0.5	1	4.7
32	COC(=O)c1ccc2c(c1)nc(C)n2CCO	0.7	x	x	x	x	-6	0.0	x	-8	0.2

# (further entries)
nr	SMILES	Ecoli growth	FGF22 binding	Ecoli rRNA inh	Ecoli rRNA inh OD600	Ecoli rRNA inh RFP	Beta apoptosis	A1 inh	AF4-AF9 inh	T cruzi repl	UCH37 inh
33	Cc1cccc(Nc2ccccc2C(=O)OCC(=O)N2CCOCC2)c1C	0.7	x	x	x	x	-4	0.0	x	-3	-3.2
34	CCOC(=O)c1sc(=NC(=O)c2ccc(OC)c(OC)c2)n(C)c1C	0.68	i	2	0	-1.2	17	-1.2	0.5	-24	-12
35	OC1(c2cccc(C(F)(F)F)c2)CCN(c2ccc(-c3ccccc3)nn2)CC1	0.69	x	x	x	x	0	-2.7	x	x	1.2
36	COCCSc1nnc(NS(=O)(=O)c2ccc(C)cc2)s1	0.67	i	-2	1	-1.7	-3	-0.9	-3.7	-11	0.6
37	COc1ccc(CNc2nc3ccccc3n2C(C)C)c(O)c1	0.61	i	-27	-25	-4.6	-3	0.7	3.7	7	4.1
38	C[C@H]1CN([C@@H](C)CO)C(=O)c2cccc(NC(=O)c3nc4ccccc4s3)c2O[C@H]1CN(C)C(=O)Nc1ccc(F)cc1	0.77	i	-7&-6	-17&-10	2.1&5.1	4	-0.1	7.8&5.6	x	2.0
39	CC1(C)CN=C(N(Cc2ccccc2)C(=O)Nc2ccccc2)S1	0.67	x	x	x	x	-6	0.0	x	-5	5.7
40	COc1ccc(C(=O)c2c(-c3ccc(OC)cc3)oc3ccc(-c4ccc(OC)nc4)cc23)cc1	0.75	i	13	12	4.1	x	-1.1	-2.8	12	-1.8

# (next part)
nr	SMILES	Ecoli growth	FGF22 binding	Ecoli rRNA inh	Ecoli rRNA inh OD600	Ecoli rRNA inh RFP	Beta apoptosis	A1 inh	AF4-AF9 inh	T cruzi repl	UCH37 inh
41	O=C1CCCC(=O)C1=Cc1c[nH]c2ccccc12	0.73	x	x	x	x	-5	-0.3	-1.7	-12	1.6
42	Cc1ccc(Cn2nc(C)c(C(=O)NCC(c3ccc(F)cc3)N3CCOCC3)c2Cl)cc1 (centres undefined)	0.66	i	-2	1	-4.7	-1	-0.6	5.4	x	2.6
43	COc1ccc(CNC(=O)CN(C)Cc2ccc(C(C)(C)C)cc2)cc1	0.65	i	-49	-70	-10	-6	0.8	-1.7	10	3.0
44	COc1ccc(-c2c(-c3ccsc3)oc3ccc(N4CCOCC4)cc23)cn1	0.73	x	x	x	x	2	u	x	14	-13
45	O=C(Nc1ccc(F)c(Cl)c1)C1CC(=O)N(Cc2ccco2)C1 (centres undefined)	0.63	i	-2	2	-0.5	3	0.5	-0.2	x	1.0
46	O=c1cc(CO)occ1OCc1cccc(C(F)(F)F)c1	0.7	x	x	x	x	0	0.7	x	-14	3.7

# Filtered by structure: those above containing a halogen.
nr	SMILES	Ecoli growth	FGF22 binding	Ecoli rRNA inh	Ecoli rRNA inh OD600	Ecoli rRNA inh RFP	Beta apoptosis	A1 inh	AF4-AF9 inh	T cruzi repl	UCH37 inh
1	COc1ccc(OCCN2CCN(C(=O)c3ccc(OC(F)F)c(OC)c3)CC2)cc1	0.73	i	-1	2	0.3	-7	1.7	2.0	4	3.0
11	O=C(O)c1ccc(N2C(=O)C3C4c5ccccc5C(Br)(c5ccccc54)C3C2=O)cc1 (centres undefined)	0.72	i	-36*	-17*	-8.5*	-11	1.4	0.3	-10	7.4
15	NS(=O)(=O)c1cc(C(=O)Nc2ccc3c(c2)CCC3)ccc1Cl	0.65	i	-15	-5	5.9	0	-1.8	3.1	2	1.1
21	COc1ccc(NC(=S)NCc2ccc(F)cc2)cc1	0.64	i	-32	-46	15	-1	-0.3	1.2	4	5.5
27	CSc1ncc(C(=O)Nc2cccnc2)c(C(F)(F)F)n1	0.68	i	-3	4	1.0	0	0.1	-26	-8	-3.5
35	OC1(c2cccc(C(F)(F)F)c2)CCN(c2ccc(-c3ccccc3)nn2)CC1	0.69	x	x	x	x	0	-2.7	x	x	1.2
38	C[C@H]1CN([C@@H](C)CO)C(=O)c2cccc(NC(=O)c3nc4ccccc4s3)c2O[C@H]1CN(C)C(=O)Nc1ccc(F)cc1	0.77	i	-7&-6	-17&-10	2.1&5.1	4	-0.1	7.8&5.6	x	2.0
42	Cc1ccc(Cn2nc(C)c(C(=O)NCC(c3ccc(F)cc3)N3CCOCC3)c2Cl)cc1 (centres undefined)	0.66	i	-2	1	-4.7	-1	-0.6	5.4	x	2.6
45	O=C(Nc1ccc(F)c(Cl)c1)C1CC(=O)N(Cc2ccco2)C1 (centres undefined)	0.63	i	-2	2	-0.5	3	0.5	-0.2	x	1.0
46	O=c1cc(CO)occ1OCc1cccc(C(F)(F)F)c1	0.7	x	x	x	x	0	0.7	x	-14	3.7

# A portion of the library; count on the stated rates, not on these rows.
